ClpP mod – qHTS Assay for Activators of ClpP; ATP-dependent Clp protease proteolytic subunit (Bacillus subtilis (strain 168)), P80244; purified B. subtilis ClpP, FRET peptide cleavage, 20 min; Potency, µM (highest dose often 57.5 µM), for inactives: at the highest dose activity change, negative = active; 1.9% of 340,000 active; AID 651965, 2013; active = well fitted falling curve with a large enough effect; inconclusive = small, poorly fitted or top-dose-only effect; inactive = no such curve, though single readings can be large or run the other way; also: potency is read from the fitted curve at half-maximal effect; the source files actives as falling curves though it sought activators and does not explain the sign; nearly all actives have a fitted effect of over 65% in size; many hits overshoot -100%
Target sequence (P80244 whole entry, looked up): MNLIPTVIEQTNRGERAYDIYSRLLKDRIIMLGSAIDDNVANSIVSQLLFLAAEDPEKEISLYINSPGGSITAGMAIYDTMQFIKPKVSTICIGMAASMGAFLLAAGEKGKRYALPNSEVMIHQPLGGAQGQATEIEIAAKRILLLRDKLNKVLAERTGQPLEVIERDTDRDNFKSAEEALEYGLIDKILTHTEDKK
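Buffer: 100 mM Tris/HCl pH8, 100 mM KCl, 0.05% low protease BSA, 2.5% glycerol, 0.01% Tween-20. ClpP 10 microg/mL final; 20 min RT; delta FRET normalized to ADEP and DMSO controls.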
D2 agonist – agonists of human D2 dopamine receptor (beta-arrestin). DiscoveRx PathHunter D2 beta-arrestin, luminescence, 90 min; 100% = 57 uM dopamine signal. activation, % (test concentration not listed). 0.084% of 360,000 active; in the data active = activation above about 40%; inconclusive = about 15% to 40%; inactive = below about 15%; also: compound concentration not given in the record; the text of the record calls up to 30% inactive
Target sequence (P14416 whole entry, looked up): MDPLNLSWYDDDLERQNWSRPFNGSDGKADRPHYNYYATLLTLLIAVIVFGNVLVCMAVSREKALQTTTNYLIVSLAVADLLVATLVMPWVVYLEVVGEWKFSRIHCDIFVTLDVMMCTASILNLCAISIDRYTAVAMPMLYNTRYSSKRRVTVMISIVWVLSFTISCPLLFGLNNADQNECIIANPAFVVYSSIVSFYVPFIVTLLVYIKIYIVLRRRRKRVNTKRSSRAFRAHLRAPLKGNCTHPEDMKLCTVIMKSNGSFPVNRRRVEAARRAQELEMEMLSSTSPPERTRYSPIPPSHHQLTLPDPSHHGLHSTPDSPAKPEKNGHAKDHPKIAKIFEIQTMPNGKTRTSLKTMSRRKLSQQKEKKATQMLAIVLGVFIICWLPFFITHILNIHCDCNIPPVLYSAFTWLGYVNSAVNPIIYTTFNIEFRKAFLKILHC
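DiscoveRx PathHunter D2 beta-arrestin cells (2,100/well) attached overnight, then compound-stimulated 90 min at 37 C in HBSS/10 mM HEPES/0.1% Tween-20 buffer; beta-galactosidase complementation read by luminescence after 1 h at ambient temperature. Dopamine 57 uM final (EC100) as control.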
gsp ag – activates gsp, the McCune-Albright syndrome mutation | 0.13% of 340,000 active | gsp mutant cells, cAMP HTRF, 30 min; control for the full effect not named in the record | Potency, µM (top dose mostly 76.9 µM), without a hit: top-dose activation (cAMP increase), actives largely listed as activators; active = well fitted activation curve with a large enough effect; inconclusive = small, poorly fitted or top-dose-only effect, or another doubt; inactive = no such curve, though single readings can be large or run the other way; cell line not stated here;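 also: phosphodiesterase inhibitor Ro 20-1724 added with compounds to block cAMP breakdown; potency is read from the fitted curve at half-maximal effect; nearly all actives have a fitted effect of over 60% in size; about a fifth of the inactives were tested at one dose only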
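Cells stably selected in G418 were plated at 2000/well, grown 16-24 hr, then given compounds in DMSO with the PDE inhibitor […] (300 uM solution added) for 30 min at 37C; cAMP was read by HTRF.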
Sfp PPTase inh – blocks B. subtilis Sfp PPTase activity; Q9F4F7; 3.5% of 310,000 active; AID 1490; Potency, µM, for inactives: max response, negative = inhibition, hits mostly inhibitors; Biochemical Sfp PPTase activity, qHTS; active = well fitted inhibition curve with a large enough effect; inconclusive = small, poorly fitted or top-dose-only effect, or another doubt; inactive = no such curve, though single readings can be large or run the other way;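 also: the enzyme is Sfp with the accession as filed and its product quenches rhodamine fluorescence; potency is read from the fitted curve at half-maximal effect; 0% = enzyme reaction without inhibitor and -100% = no enzyme wells; top concentration of the series not given in the record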
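Sfp 15 nM + cpd, 15 min RT; start w/ rhodamine-CoA 5 uM, BHQ-2-YbbR 12.5 uM (final); 50 mM Hepes pH 7.6, 10 mM MgCl2, 0.01% NP-40, 0.01% BSA; read 525/598 nm at 0 and 30 min.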
Menin-MLL FL inh – displaces fluorescein MLL peptide from human menin; Fluorescence polarization, fluorescein-MLL peptide displacement from menin; FP activity change, % at 61.4 µM; 290,000 tested, under 10 active; AID 1766; inconclusive = falling polarisation curve, or a change in total fluorescence; inactive = total fluorescence flat and polarisation flat or rising; no compound was filed as active; the % refers to the polarisation; negative = inhibition;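 also: % of control where 0% means no effect; inhibitors lower the polarisation; unlabelled MLL peptide was the positive control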
PINK1 expr mod – modulators of PINK1 expression; PINK1 immunofluorescence, high-content cytometry, 24 h; Potency, µM (titrated, usually from 76.6 µM), without a hit: at the top dose activation (PINK1 increase), usual class: activators; AID 624263; 0.2% of 410,000 active; active = well fitted activation curve with a large enough effect; inconclusive = small, poorly fitted or top-dose-only effect; inactive = flat fitted curve, though single readings scatter; cell line not stated here;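 also: potency is read from the fitted curve at half-maximal effect; % of control where 0% means no effect; nearly all actives have a fitted effect of over 65% in size; a mitochondrial uncoupler was the plate control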
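Decision-based qHTS: stable cells, 24 h exposure to five compound concentrations, CCCP as control. Fixed cells stained for PINK1 plus nuclear, mitochondrial and cell markers, cytometer read.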
gsp antagonist – gsp mutant antagonism; gsp-mutant cells, cAMP HTRF, 30 min; control for the full effect not named in the record; Potency, µM (doses to about 76.9 µM), without a hit: top-dose activity change, negative = inhibition, usual class: inhibitors; 0.4% of 340,000 active; active = falling curve of any shape with a large fitted effect; inconclusive = falling curve, mostly with a smaller effect; inactive = flat or rising curve; cell line not stated here;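 also: intracellular cAMP measured with PDE inhibitor Ro 20-1724 present during compound exposure; potency is read from the fitted curve at half-maximal effect; % is scaled to controls: 0 for no effect and ±100 for the full control effect; nearly all actives have a fitted effect of over 65% in size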
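Cells, 2000/well, grown 16–24 h in DMEM 10% FBS with 0.5 mg/ml G418, then compounds plus […] (300 uM addition stock), 30 min at 37C. cAMP read by HTRF (cAMP-d2 and anti-cAMP antibody-K in lysis buffer) after 30 min RT.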
* hit, by the source's call; u = inconclusive; x = no result given; [ ] = remark or other dose. This is a random part of the collection; any-hit rate near 5.1%.

SMILES	ClpP mod	D2 agonist	gsp ag	Sfp PPTase inh	Menin-MLL FL inh	PINK1 expr mod	gsp antagonist
CC(=O)c1ccc2c(c1)C1C=CCC1C(c1ccncc1)N2 (stereo unspecified)	-5.7%	6.0	-0.4%	-27.6%	-2.0	2.1%	-11.2%
CN(Cc1ccccc1)C(=O)c1nc2ccccn2c1CNCCn1cccn1	x	-1.4	31.9%	-9.7%	-1.1	0.5%	10.9%
Cc1ccc(C(=O)Nc2ccc(C(=O)/C=C/c3cccs3)cc2)cc1	-3.2%	1.0	-27.5%	14.8%	3.4	3.7%	0.6%
Cc1cc(C=O)c(O)cc1O	2.4%	-1.2	x	15.1%	5.3	0.4%	2.9%
CCOC(=O)Cn1cc(/C=N/N2C(=O)C3C4C=CC(C4)C3C2=O)c2ccccc21 (stereo unspecified)	x	1.2	17.8%[15.4 µM]	0.4%	9.5	-0.5%	2.4%
CCOC(=O)N1CCC(NC(=O)CC2C(=O)NCCN2Cc2ccccc2)CC1 (stereo unspecified)	-4.3%	-0.8	-8.9%	-4.4%	x	1.4%	-8.7%
COc1ccc(NC(=S)NNC(=O)c2nnn(-c3ccccc3)c2C)cc1	-12.1%	-7.3	-3.4%	10.4%	3.3	0.7%	-9.5%
CN(C)CCNC(=O)c1ccc2c(c1)N(Cc1ccc(F)cc1)CCS2	4.6%	-3.0	-40.7%[inhibitor]	-8.4%	1.7	6.1%	-1.8%
Cc1c(C(=O)NC(C)C)c(-c2ccccc2)nn1-c1ccccc1	-3.6%	-4.4	-31.3%	13.4%	-0.3	2.7%	5.8%
O=C(NCc1ccccc1)C(c1ccc(F)cc1)N(C(=O)c1csnn1)c1ccccc1 (stereo unspecified)	x	-1.0	-16.8%	5.9%	-0.4	-0.2%	-9.2%
CCOc1cc(C)c(C(C)C)cc1S(=O)(=O)N1CCOCC1	-0.2%	-1.1	-2.6%	7.2%	3.5	-0.3%	-2.9%
Nc1ccc2c(c1)C(=O)N(CCCC(=O)O)C2=O	0.1%	-0.1	23.3%	-1.5%	-8.7	-1.1%	16.5%
O=C(CNC(=O)c1cccs1)OCc1ccc(Br)cc1	-1.2%	-0.4	u	12.5%	x	0.6%	4.0%
CN1CCN(CCCNC(=O)C2CCN(c3nnc(-n4cccc4)s3)CC2)CC1	3.5%	-1.4	-12.3%	13.0%	4.4	-0.4%	12.5%
COc1ccc2cc3cc(C(=O)Nc4ccc5c(c4)OCCO5)oc3nc2c1	-0.5%	12.4	-10.3%	-5.4%	13.1	3.5%	-2.4%
C1=C(c2cc3ccccc3cn2)CCCC1	u	-1.9	x	x	x	6.3%	-0.9%
CC1=C(C#N)C(=O)NC(=O)/C1=C/c1ccc(-c2ccc(S(N)(=O)=O)cc2)o1	-24.7%	9.8	4.3%	79.4µM*	-3.2	-1.9%	-12.4%
Cc1ccccc1C(=O)Nc1ccnn1C1CCN(Cc2cnn(C(C)C)c2)CC1	-0.3%	-6.4	-32.7%	7.6%	3.8	0.8%	2.5%
COCCNS(=O)(=O)c1ccc(SC)cc1	-1.1%	0.2	-31.4%[inhibitor]	5.3%	9.9	-7.3%[38.3 µM]	3.6%
Cc1ccc(-c2c(C(=O)N3CCOCC3)oc(=O)c3ccccc23)cc1	-3.6%	-0.3	4.5%	8.6%	-0.2	-3.6%	-7.1%
CC(=O)N(c1ccccc1)c1nc(C)cc(C)c1C#N	-3.6%	-3.5	-13.5%	9.0%	-1.8	0.1%	11.5%
CNC(=S)n1cnc(N)n1	-2.3%	-1.4	u	u	u	-0.9%	0.5%
CCOc1ccc(N(CC(=O)NN=C2CCN(C)CC2)S(=O)(=O)c2ccc(Br)cc2)cc1	-4.8%	-0.9	-30.8%[inhibitor]	3.3%	x	u	-2.3%
CN(C)c1ncc2nc(-c3cccs3)c(=O)n(CCC#N)c2n1	x	x	x	-0.4%	u	2.6%	x
COC(=O)c1c(NC(=O)c2ccccc2F)sc(C(=O)N2CCOCC2)c1C	x	-0.9	u	9.9%	x	1.6%	-2.1%
CC1(C)Cc2c(sc3[nH]c(=S)n(Cc4ccccc4)c(=O)c23)CO1	-0.2%	0.2	2.3%	-17.0%	-4.7	-2.6%[38.3 µM]	-21.3%
CCOc1ncccc1C(=O)OCCCC(=O)c1ccc(Br)cc1	-0.4%	0.5	14.7%	x	x	4.0%	-26.5%
COc1ccc(/C=C/c2cc(O)cc(OC3OC(CO)C(O)C(O)C3O)c2)cc1 (stereo unspecified)	u	3.2	x	x	x	0.3%	1.8%
CCOc1ccc(NCc2nnc(SCC(=O)Nc3cc(C)on3)n2-c2ccccc2OC)cc1	5.3%	-1.0	-2.8%	5.5%	2.3	11.1%[38.3 µM]	-6.9%
NC(=O)c1ccsc1NC(=O)COC(=O)c1cc(Cl)ccc1O	x	-4.2	-21.3%[15.4 µM]	x	x	6.1%	-0.4%
COc1ccc(C(=O)Nc2cc(C)nn2-c2ccc(F)cc2)cc1	x	1.3	-12.0%[15.4 µM]	20.9%	0.0	5.0%	4.7%
S=C(Nc1ccccc1)N1CCOCC1	x	1.0	1.0%[15.4 µM]	-20.9%	-2.7	-0.4%	11.7%
Cn1c(NN)nc2ccccc2c1=O	0.3%	-2.3	-27.4%	17.8µM*	-3.2	0.5%	10.2%
CCCn1c(C(C)Nc2nc(-c3ccc(C)cc3)cs2)nc2cc(Cl)c(Cl)cc21 (stereo unspecified)	0.8%	1.3	x	5.5%	-0.4	10.4%	-0.9%
COc1cccc(C(=O)NC2CCCc3ccccc32)c1 (stereo unspecified)	-24.3%	-1.8	3.0%[15.4 µM]	16.5%	-3.5	-1.0%	1.7%
COc1cc(CC2COC(c3ccc(O)c(OC)c3)C2COC(C)=O)ccc1O (stereo unspecified)	-6.7%	-8.0	x	-0.2%	0.7	-1.1%	-3.8%
CCN(CC)CCn1c(SCC(=O)NCc2ccccc2)nc2c(sc3ccccc32)c1=O	0.8%	-0.4	39.4%[15.4 µM]	20.8%	0.6	2.4%	-3.7%
O=C(NC(=S)NCc1ccc(-c2nc3ccccc3s2)cc1)c1ccco1	-5.5%	0.6	-1.3%	18.1%	0.6	0.6%	-8.7%
O=C1Nc2ccccc2OC1CC(=O)N1CCOCC1 (stereo unspecified)	0.5%	-7.1	34.7%	-14.0%	0.2	4.1%	2.3%
CC(C)n1c(-c2ccncc2)n[nH]c1=S	-3.7%	-8.6	16.8%	u	-2.2	1.9%	7.1%
CCOC(=O)c1c(C)n(-c2ccc(C)cc2)c2ccc(O)c(CN(C)C)c12	x	4.2	-38.4%[inhibitor]	u	5.2	-0.7%	18.7%
COC(=O)c1sc(N2C(=O)C(O)=C(C(=O)c3ccc(C)o3)C2c2ccco2)nc1C (stereo unspecified)	-3.6%	-0.6	25.9%[15.4 µM]	11.5%	x	-0.6%	-10.9%
CCOc1cc(C(=O)NCCc2ccc(S(N)(=O)=O)cc2)cc(OCC)c1OCC	-1.0%	-3.2	-48.9%[inhibitor]	3.5%	-0.8	0.8%	9.2%
O=C(c1ccc(F)cc1)C1CCN(C(=O)c2ccc(F)cc2)CC1	1.5%	-2.1	0.6%	18.1%	-1.5	-0.6%	0.7%
CC[C@H]1C/C=C\Cc2ccccc2[C@H](C(=O)C[C@@H](O)CC(C)=O)OC1=O	1.0%	-0.4	x	x	x	-0.2%	2.5%
Cc1cc(CNC(=O)c2cccnc2Cl)c2ccccc2n1	x	1.7	16.3%	15.4%	1.6	1.1%	14.5%
COc1ccc2c(C)cc(SCC(=O)Nc3cc(C(N)=O)cc(C(N)=O)c3)nc2c1	x	0.2	11.8%[15.4 µM]	44.7µM*	9.3	u	7.6%
CCOCCCN(C)C1CCN(S(=O)(=O)c2csc(C(N)=O)c2)CC1	-2.5%	-5.3	-51.6%[inhibitor]	4.8%	-1.9	-0.4%	7.6%
CCn1c(/C=C/c2ccccc2)nc2ccccc2c1=O	-2.4%	-2.0	14.3%	-5.1%	-1.9	3.1%	-12.3%
CCn1c(NCc2cccs2)nc2ccccc21	-2.0%	-0.9	-3.1%	13.7%	-1.8	-2.1%	4.3%
The listing continues.
SMILES	ClpP mod	D2 agonist	gsp ag	Sfp PPTase inh	Menin-MLL FL inh	PINK1 expr mod	gsp antagonist
Cc1ccc(-c2nc(CN3CCN(c4cnccn4)CC3)c(C)o2)o1	-0.4%	-2.3	-7.0%[15.4 µM]	-1.2%	1.8	4.0%	-7.0%
O=C(NC1CCCC1)C(c1cccnc1)N(C(=O)c1csnn1)c1ccc(F)cc1 (stereo unspecified)	x	0.7	21.4%	11.6%	-1.1	-1.5%	7.6%
CCc1ccc(NC(=O)CCNS(=O)(=O)c2cccc3nonc23)cc1	0.5%	-5.4	0.0%	12.0%	-1.9	-2.0%	-7.4%
CCC(C(=O)OCC(=O)Nc1ccc(OC)cc1OC)c1ccccc1 (stereo unspecified)	x	3.6	-1.7%[15.4 µM]	16.0%	-4.0	1.8%	x
CCOc1ccc(CN2CCN(Cc3c(C)nn(CC)c3C)CC2CCO)cc1 (stereo unspecified)	x	-3.2	-20.0%[15.4 µM]	-1.7%	0.0	1.0%	8.5%
C/C(=N\NC(=O)c1ccccc1C)c1cccc([N+](=O)[O-])c1	-1.1%	-2.2	24.6%	10.3%	2.5	-1.5%	-1.0%
CCOC(=O)C1CCCN(C2CC(=O)N(c3ccc(N4C(=O)CC(N5CCCC(C(=O)OCC)C5)C4=O)cc3)C2=O)C1 (stereo unspecified)	0.5%	-2.6	-2.4%	-27.7%	-1.6	-0.6%	0.0%
CCOC(=O)c1cc2c(ccn2C)n1CC(=O)N1CCCC(C)C1 (stereo unspecified)	-29.0%	-0.1	23.0%	13.2%	2.7	2.3%	-6.6%
CCN1CCN(S(=O)(=O)c2ccc(Cl)c(C(=O)N(C)Cc3cccc(OC)c3)c2)CC1	1.8%	-3.9	-2.4%[15.4 µM]	x	x	0.6%	1.6%
Cc1ccc2nc(NC(=O)CSc3nc4c(c(=O)n3C)SC(C)C4)sc2c1 (stereo unspecified)	1.8%	4.3	-6.8%	2.2%	21.2	2.2%	-21.8%
O=S(=O)(CCc1nc2ccccc2[nH]1)c1ccc(Br)cc1	-14.8%	-2.8	1.8%	1.4%	2.5	3.2%	0.9%
Cc1cc(C)c(NC(=O)C2CCCO2)c(C)c1 (stereo unspecified)	0.9%	-5.9	2.9%[15.4 µM]	x	x	0.7%	20.6%

Assay outcomes (PubChem)
